NCOA2 inhibitor: human SRC2 (NCOA2) inhibition; Q15596; HEK293 GAL4-SRC2 luciferase reporter, luminescence; inhibition, % at 9 µM; 0.17% of 370,000 active; AID 651957;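 active means inhibition above the mean inhibition of all tested compounds plus 3 SD, set per campaign, cut at about 52% in these data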;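 further: 0% = DMSO treated cells and 100% = cells given Gossypol at 36 µM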
ABHD5-PLIN5 inh: blocks binding of human ABHD5 to perilipin-5 | Q00G26+Q8WTS1 | Split G. princeps luciferase complementation, luminescence, 4 h | inhibition, % at 4 µM | 0.78% of 360,000 active;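 active means inhibition above the mean inhibition across every tested compound plus 3 SD, cut at about 22% in these data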;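 further: 0% = DMSO only wells and the 100% control is not disclosed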
TLR9-MyD88 inh: inhibitors of human TLR9-MyD88 binding. AID 504734. 0.21% of 340,000 active. Q9NR96+Q99836. inhibition, % at 4.98 µM. CHO BLA complementation TLR9-MyD88, CCF4 FRET ratio;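 active means inhibition above the mean over all tested compounds plus 3 SD, cut at about 21% in these data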;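 further: 0% = DMSO only wells and 100% = clavulanate BLA inhibitor control wells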
NCOA3 inh: inhibits human SRC3 coactivator. 0.17% of 360,000 active. Q9Y6Q9. inhibition, % at 3.6 µM. HEK293 GAL4-SRC3 luciferase reporter, luminescence;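 active means inhibition above a per-campaign cutoff, the mean of all compounds plus 3 SD, cut at about 60% in these data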;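 further: 0% = DMSO-treated cells and 100% = gossypol-treated cells at 36 µM; higher means less SRC3-driven luciferase light from the GAL4 reporter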
NOD2 RIPK2 PPI: blocks binding of human NOD2 to RIPK2; CHO BLA complementation NOD2-RIPK2, CCF4 ratio; 0.38% of 360,000 active; inhibition, % at 4.98 µM; in the data active means inhibition above about 21%;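 further: 0% = vehicle only and 100% = reference blocker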
SRC1 inh: inhibitors of human steroid receptor coactivator 1 (SRC1). Q15788. HEK293 GAL4-SRC1 luciferase reporter, luminescence. inhibition, % at 3.6 µM. 0.12% of 360,000 active. AID 588354;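 active means inhibition above the campaign mean plus 3 SD, with each screening campaign given its own cutoff, cut at about 60% in these data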;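 further: 0% = DMSO treated cells and 100% = gossypol at 36 µM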
An asterisk follows results filed as active. An excerpt; the hit share may differ from the screen's.

entry	canonical_smiles	NCOA2 inhibitor	ABHD5-PLIN5 inh	TLR9-MyD88 inh
1	N#Cc1ccc(CNC(=O)N2CCOCC2)cc1	-37	3	8
2	COc1cccc(C(=O)Nc2cc3c(cc2N2CCOCC2)n(C)c(=O)n3C)c1	-15	1	-16
3	O=C(N/N=C/c1ccc(Sc2ccccn2)o1)c1cccc([N+](=O)[O-])c1	-3	-2	1
4	NS(=O)(=O)c1cc(C(=O)O)c(NCc2ccco2)cc1Cl	0	0	-8
5	NC(=O)C1CCN(C(=O)Nc2ccccc2)CC1	-18	-3	-4
6	CN[C@@H]1CC[C@H](c2ccc(Cl)c(Cl)c2)c2ccccc21	-14	-2	6
7	C#CC1(O)CCC2C3CCC4=C(CCC(=O)C4)C3CCC21C (configuration not stated)	15	0	-4
8	COCc1cc(C)nc(SCC(=O)c2ccc(O)c(O)c2)c1C#N	-9	0	5
9	NS(=O)(=O)c1ccc(NC(=O)Nc2ccc(Cl)cc2)cc1	-8	0	11
10	Cc1ccc(NC(=O)c2sccc2SCc2cccc(C(F)(F)F)c2)cc1	12	-14	-13

entry	NCOA3 inh	NOD2 RIPK2 PPI	SRC1 inh
1	3	-2	-4
2	-10	4	-4
3	-5	-4	-6
4	-3	-7	-24
5	-1	0	-4
6	-15	2	6
7	3	-6	-18
8	-5	-1	-33
9	-17	4	-12
10	7	7	-3

Full records, quoted from the list. Values in the order: NCOA2 inhibitor, ABHD5-PLIN5 inh, TLR9-MyD88 inh, NCOA3 inh, NOD2 RIPK2 PPI, SRC1 inh
Entry for O=C(N/N=C/c1ccc(Sc2ccccn2)o1)c1cccc([N+](=O)[O-])c1 = -3, -2, 1, -5, -4, -6
Entry for Cc1ccc(NC(=O)c2sccc2SCc2cccc(C(F)(F)F)c2)cc1 = 12, -14, -13, 7, 7, -3

Exported with one line to a screen: 5 of the compounds above
(3) O=C(N/N=C/c1ccc(Sc2ccccn2)o1)c1cccc([N+](=O)[O-])c1
(4) NS(=O)(=O)c1cc(C(=O)O)c(NCc2ccco2)cc1Cl
(5) NC(=O)C1CCN(C(=O)Nc2ccccc2)CC1
(6) CN[C@@H]1CC[C@H](c2ccc(Cl)c(Cl)c2)c2ccccc21
(7) C#CC1(O)CCC2C3CCC4=C(CCC(=O)C4)C3CCC21C (configuration not stated)
entry no.	3	4	5	6	7
NCOA2 inhibitor	-3	0	-18	-14	15
ABHD5-PLIN5 inh	-2	0	-3	-2	0
TLR9-MyD88 inh	1	-8	-4	6	-4
NCOA3 inh	-5	-3	-1	-15	3
NOD2 RIPK2 PPI	-4	-7	0	2	-6
SRC1 inh	-6	-24	-4	6	-18
